Screening data deposited in PubChem by National Center for Advancing Translational Sciences (NCATS).
N370S GC mod: N370S glucocerebrosidase modulation, Gaucher chaperone candidate | P04062 | N370S GC spleen homogenate, 4MU-glucoside fluorescence | Potency, µM (highest dose often 59.4 µM), without a hit: at the highest dose activity change, negative = inhibition, usual class: inhibitors | 330,000 compounds, 0.092% hits | AID 2101;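 also: 0% = full enzyme activity and -100% = no enzyme basal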
FEN1 inhibitor: inhibitors of human flap endonuclease 1 | P39748 | Recombinant FEN1 flap cleavage, fluorescence, 15 min | Potency, µM (doses to about 114 µM), for the others: at the highest dose activity change, negative = inhibition, hits mostly inhibitors | 390,000 compounds, 0.35% hits; also: nearly all actives have a fitted effect of over 65% in size
Target sequence (P39748 whole entry, looked up): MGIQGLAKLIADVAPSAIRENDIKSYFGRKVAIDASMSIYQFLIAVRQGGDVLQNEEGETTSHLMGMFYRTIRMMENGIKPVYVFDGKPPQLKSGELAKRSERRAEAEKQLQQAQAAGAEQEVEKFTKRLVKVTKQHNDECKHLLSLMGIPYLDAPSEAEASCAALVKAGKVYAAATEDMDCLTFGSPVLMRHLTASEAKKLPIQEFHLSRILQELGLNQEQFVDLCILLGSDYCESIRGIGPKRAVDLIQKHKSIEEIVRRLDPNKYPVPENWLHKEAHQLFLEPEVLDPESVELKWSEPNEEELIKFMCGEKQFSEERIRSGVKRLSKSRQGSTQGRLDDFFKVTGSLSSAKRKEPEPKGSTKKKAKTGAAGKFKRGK
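Enzyme 10 nM, 15 min RT preincubation with compound; start with substrate 50 nM final; reads at 0 and 15 min; qHTS titration, four-parameter Hill fit.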
Active calls of the source: *; ? = inconclusive; · = not tested or not shown; [ ] = another dose, or the depositor's remark. Calls follow the shape of the dose curve; as a rule, active = well fitted curve in the direction sought with a large enough effect; inconclusive = small, poorly fitted or top-dose-only effect, or another doubt; inactive = no such curve, though single readings can be large; an effect the other way counts as inactive or inconclusive. Unless noted, % is scaled to controls: 0 for no effect and ±100 for the full control effect; potency is read from the fitted curve at half-maximal effect. An excerpt; most or all hits stand in other tables.

[1] COc1ccc(CC(=O)N2CCC3(CC2)NCCc2[nH]cnc23)cc1
[2] CSc1ccccc1NC(=O)CN1CCN(c2ccccn2)CC1
[3] COc1ccc2nc(C(F)(F)Cl)c(C#N)c(N)c2c1
[4] COc1cccc(Nc2ncc3nc(-c4ccc(F)cc4)c(=O)n(C[C@H]4CCCO4)c3n2)c1
[5] Cc1cc(C)nc(SC(C)C(=O)O)n1 (stereo not drawn)
[6] COc1ccc(CN2CCCC(C(=O)Nc3cccc(-n4cnnn4)c3)C2)c(C)c1C (stereo not drawn)

entry no.,1,2,3,4,5,6
N370S GC mod,-6%,0%,14%,10%,0%,-7%
FEN1 inhibitor,-7%,3%,-19%,·,14%,-22%

[7] Cc1cc(C(=O)Nc2ccccc2C)n(-c2ccccc2)n1
[8] Cc1cc(C)nc(NC(N)=NCCc2c[nH]c3ccccc23)n1
[9] [N-]=[N+]=NC(c1ccccc1)c1nc2ccccc2[nH]c1=O (stereo not drawn)
[10] Cc1ccc(NC(=O)COc2ncnc3ccccc23)cc1S(=O)(=O)N1CCOCC1
[11] COC(=O)[C@H](CC(C)C)NC(=O)CCc1nnc(COc2ccccc2)o1
[12] COc1ccc(Cc2nnc(N/N=C/c3ccc(N(C)C)cc3)[nH]c2=O)cc1OC

entry no.,7,8,9,10,11,12
N370S GC mod,8%,-11%,?,3%,12%,-1%
FEN1 inhibitor,6%,?,-1%,2%,-3%,-4%

[13] Cc1ccc(S(=O)(=O)N2CCN(C(=O)c3ccc(S(=O)(=O)N4CCCC4)cc3)CC2)cc1
[14] CC1(C)CN2C(=O)c3ccccc3C2(C)S1 (stereo not drawn)
[15] COc1cccc(-c2ccc3c(N)c(C(=O)Nc4cc(F)ccc4F)sc3n2)c1
[16] COc1ccc(C/C(C)=N/NC(=S)Nc2ccccc2F)cc1
[17] O=C(CN1C(=O)NC2(CCCC2)C1=O)Nc1ccccc1N1CCCC1
[18] COC(=O)c1ccccc1OC(=O)c1cc[n+]([O-])cc1

entry no.,13,14,15,16,17,18
N370S GC mod,-5%,-4%,·,2%,-2%,6%
FEN1 inhibitor,-13%,4%,14%,-4%,16%,1%

Entries of single compounds from above. Values in the order: N370S GC mod | FEN1 inhibitor
Entry for `[N-]=[N+]=NC(c1ccccc1)c1nc2ccccc2[nH]c1=O` (stereo not drawn) : ? | -1%
Entry for `Cc1cc(C)nc(SC(C)C(=O)O)n1` (stereo not drawn) : 0% | 14%

Further records:
[19] CSc1ncc(Cl)c(C(=O)Nc2sc3c(c2C(=O)NCc2ccco2)CCCC3)n1
[20] CCCCN1C(=O)C(=O)NC[C@@H]1C(C)O (stereo partly drawn)
[21] O=C(COC(=O)c1cccs1)NC1CCCC1
[22] NC(=S)Nc1cccc(Cl)c1
[23] CCCCc1cc2c(cn1)=C(OC(=O)c1cnc3ccccc3n1)C(C)(OC(=O)CC)C(=O)C=2 (stereo not drawn)
[24] CN(Cc1ccco1)C(=O)C(Cc1ccccc1)NS(=O)(=O)c1ccc2c(c1)CCC(=O)N2 (stereo not drawn)

entry no.,19,20,21,22,23,24
N370S GC mod,-23%,?,-13%,3%,4%[12.8 µM],?
FEN1 inhibitor,·,-8%,-10%,-11%,-18%,19%

[25] CC(C)COc1cccc(C(=O)NC2(C)CCS(=O)(=O)C2)c1 (stereo not drawn)
[26] O=S(=O)(NCC1CCCO1)c1ccc2ccccc2c1 (stereo not drawn)
[27] CNC(=O)c1cc2cc(OC)ccc2n1CCN(C)C
[28] O=C(NCC(=O)N1CCN(c2ccccc2O)CC1)c1cccs1
[29] O=C(Nc1nc2ccccc2[nH]1)c1ccc(F)cc1
[30] Cc1ccc(CN=C2NC(=O)C(CC(=O)NCCc3ccccc3)S2)cc1 (stereo not drawn)

entry no.,25,26,27,28,29,30
N370S GC mod,-7%,-1%,6%,1%,-15%,-3%
FEN1 inhibitor,7%,-7%,0%,8%,-2%,·

[31] CC(C)Cn1c(=O)c2c(nc3n2CCCN3CCc2ccccc2)n(C)c1=O
[32] C=CCn1c(-c2ccco2)n[nH]c1=S
[33] O=C(COc1ccc(/C=N/NC(=O)c2ccncc2)cc1)Nc1ccccc1
[34] N#CCc1ccc(NS(=O)(=O)c2ccc(N3CCCC3=O)cc2)cc1
[35] CN1CC2(C)CN(C(c3ccccc3)c3ccccc3)CC(C)(C1)C2O (stereo not drawn)
[36] O=C(COc1cccc(Cl)c1)NCC(c1cccs1)N1CCOCC1 (stereo not drawn)

entry no.,31,32,33,34,35,36
N370S GC mod,1%,6%,0%,-3%,4%,·
FEN1 inhibitor,-2%,2%,1%,-14%,0%,9%

[37] Cc1cccn2c(=O)c3cc(C(N)=S)c(=N)n(CCCOC(C)C)c3nc12
[38] CCCOC(=O)c1ccc(NC(=O)c2cc(OC)c(OC)c(OC)c2Br)cc1
[39] CN(Cc1ccccc1)C1CCNCC1
[40] Cn1c(=O)c2c(nc(Br)n2CCSc2nc3ccccc3o2)n(C)c1=O
[41] Cc1ccc(N2CC(NC(=O)Cc3ccc(F)cc3)CC2=O)cc1 (stereo not drawn)
[42] COc1ccc(NC(=O)COc2ccc(/C=C/c3cccc[n+]3C)cc2OC)cc1

entry no.,37,38,39,40,41,42
N370S GC mod,12%,-2%,-3%,4%,·,-5%
FEN1 inhibitor,?,?,-14%,-5%,-1%,11%

[43] Fc1ccc(NC(=S)NCCc2ccccn2)cc1
[44] O=C(Nc1ncc(C(F)(F)F)cc1Cl)c1ccc(S(=O)(=O)N2CCOCC2)cc1
[45] Cc1ccc(NC(=O)CCc2nnc(SCC(=O)Nc3ccccc3C)n2C)cc1Cl
[46] Cc1ccc(-n2ncc3c2CC(C)(C)CC3NC(=O)c2c(C)noc2C)cc1 (stereo not drawn)
[47] COc1cc(Cl)c(C)cc1N1C(=O)CN(Cc2ccccc2)C1=S
[48] COc1ccc(CCNc2c(N)n(Cc3ccccc3)c(=O)[nH]c2=O)cc1OC

entry no.,43,44,45,46,47,48
N370S GC mod,0%,-2%,12%,-12%,-8%,23%
FEN1 inhibitor,2%,-7%,-1%,0%,-8%,-6%

[49] Cc1nn(CC(=O)NCCN2CCOCC2)c(C)c1[N+](=O)[O-]
[50] NC(=O)c1ccc[n+](CC(=O)c2ccccc2)c1
[51] Cc1ccn2c(NC(C)(C)C)c(-c3cccs3)nc2c1
[52] COc1cccc(C(=O)N2CCN(Cc3ccccn3)CC2)c1OC
[53] CCCc1cc(=O)[nH]c(SCC(=O)Nc2ccc(Br)cc2Br)n1
[54] Brc1ccc(C=Nc2ccc3c(c2)OCCOCCOCCO3)s1

entry no.,49,50,51,52,53,54
N370S GC mod,?,-14%,-28%,?,-6%,5%
FEN1 inhibitor,-2%,-3%,-3%,0%,9%,-4%

Numbers 39–51, reprinted for reference:
[39] CN(Cc1ccccc1)C1CCNCC1
[40] Cn1c(=O)c2c(nc(Br)n2CCSc2nc3ccccc3o2)n(C)c1=O
[41] Cc1ccc(N2CC(NC(=O)Cc3ccc(F)cc3)CC2=O)cc1 (stereo not drawn)
[42] COc1ccc(NC(=O)COc2ccc(/C=C/c3cccc[n+]3C)cc2OC)cc1
[43] Fc1ccc(NC(=S)NCCc2ccccn2)cc1
[44] O=C(Nc1ncc(C(F)(F)F)cc1Cl)c1ccc(S(=O)(=O)N2CCOCC2)cc1
[45] Cc1ccc(NC(=O)CCc2nnc(SCC(=O)Nc3ccccc3C)n2C)cc1Cl
[46] Cc1ccc(-n2ncc3c2CC(C)(C)CC3NC(=O)c2c(C)noc2C)cc1 (stereo not drawn)

entry no.,39,40,41,42,43,44,45,46
N370S GC mod,-3%,4%,·,-5%,0%,-2%,12%,-12%
FEN1 inhibitor,-14%,-5%,-1%,11%,2%,-7%,-1%,0%

[47] COc1cc(Cl)c(C)cc1N1C(=O)CN(Cc2ccccc2)C1=S
[48] COc1ccc(CCNc2c(N)n(Cc3ccccc3)c(=O)[nH]c2=O)cc1OC
[49] Cc1nn(CC(=O)NCCN2CCOCC2)c(C)c1[N+](=O)[O-]
[50] NC(=O)c1ccc[n+](CC(=O)c2ccccc2)c1
[51] Cc1ccn2c(NC(C)(C)C)c(-c3cccs3)nc2c1

entry no.,47,48,49,50,51
N370S GC mod,-8%,23%,?,-14%,-28%
FEN1 inhibitor,-8%,-6%,-2%,-3%,-3%

The list goes on.
[55] COc1ccc(-n2nc(C(=O)NCC(=O)NCCCN3CCN(C)CC3)c3ccccc3c2=O)cc1
[56] O=C1C2C3C=CC(C3)C2C(=O)N1Nc1ccccc1 (stereo not drawn)
[57] CN(C)C(=O)N1CCN(C(=O)c2ccccc2Sc2ccccc2C#N)CC1
[58] Cc1cc(=O)[nH]c(SCCCOc2ccccc2Cl)n1
[59] O=C(CSc1nc2ncc(Br)cc2[nH]1)Nc1ccccc1-c1ccccc1
[60] Cc1cccc(NC(=O)CN(C)S(=O)(=O)c2cnc[nH]2)c1

entry no.,55,56,57,58,59,60
N370S GC mod,-3%,2%,-20%,?,-11%,1%
FEN1 inhibitor,2%,-14%,2%,-2%,-23%,4%

[61] CN(C)S(=O)(=O)c1ccc(C(=O)NCCSc2c(-c3ccccc3)[nH]c3ccccc23)cc1
[62] C=C(C)CNC(=O)c1ccc2nc(Cc3ccc(OC)cc3)oc2c1
[63] Cc1cccnc1NC(=O)CCc1nnc2ccc(N3CCC4(CC3)OCCO4)nn12
[64] O=C(Oc1ccc(/C=N/NC(=O)c2ccco2)cc1)c1ccccc1
[65] CC(C)n1cc(/C=N/Nc2ccc(Cl)c(C(=O)O)c2)c2ccccc21
[66] O=C(CC(c1cccs1)N1Cc2ccccc2C1=O)Nc1ccccc1 (stereo not drawn)

entry no.,61,62,63,64,65,66
N370S GC mod,·,-3%,-6%,·,4%,·
FEN1 inhibitor,-13%,-4%,5%,18%,·,-8%

[67] CC(=O)c1ccc(NC(=O)CN2C(=O)NC3(CCCc4ccccc43)C2=O)cc1 (stereo not drawn)
[68] CCOC(=O)c1sc(N(Cc2ccccc2)C(=O)COC(=O)c2cnccn2)nc1C
[69] COCCN(Cc1ccccc1)C(=O)Cc1ccc(S(=O)(=O)N2CCOCC2)s1
[70] O=C(Nc1ccc(-c2nc3ccccc3o2)c(O)c1)c1ccccc1
[71] CS(=O)(=O)c1ccc(NC(=O)CCN2C(=O)C3CCCCC3C2=O)cc1 (stereo not drawn)
[72] Cc1cc(C)c2cc(CN(CCCO)S(=O)(=O)c3ccccc3F)c(=O)[nH]c2c1

entry no.,67,68,69,70,71,72
N370S GC mod,·,-7%,·,·,-3%,10%
FEN1 inhibitor,-16%,-2%,-12%,17%,4%,-6%

[73] O=c1c(-c2cc(F)cc(F)c2)nc2cnc(N3CCOCC3)nc2n1C1CC1
[74] O=C(OCC(=O)N1CCCC1)c1ccccc1O
[75] O=C(c1ccc(F)cc1)N1CCN2C(=O)c3ccccc3C12c1ccccc1 (stereo not drawn)
[76] CC(=O)Nc1ccc(NC(=O)CN(c2ccc(F)cc2)S(=O)(=O)c2ccc3c(c2)OCCO3)cc1
[77] Nc1nc2nc(SCC(=O)N3CCCc4ccccc43)[nH]c2c(=O)[nH]1
[78] Cc1nn(C)c(C)c1S(=O)(=O)N1CCC(C(=O)Nc2ccc3c(c2)OCCO3)CC1

entry no.,73,74,75,76,77,78
N370S GC mod,13%,-6%,5%,-13%,1%,-19%
FEN1 inhibitor,·,-1%,-1%,-2%,·,19%

[79] CC(Sc1nnc(N)s1)C(=O)NCc1ccc2c(c1)OCO2 (stereo not drawn)
[80] CN(C)C(=O)CSc1nnc(-c2ccncc2)n1Cc1ccco1
[81] CCOc1ccc(N(C(=O)CNC(=O)c2cccs2)C(C(=O)NCC2CCCO2)c2ccc(OC)c(OC)c2)cc1 (stereo not drawn)
[82] COc1cccc(C(=O)Nc2ccccc2C(=O)OCc2cc(=O)n3c(C)csc3n2)c1
[83] CCOC(=O)c1c(S(=O)(=O)NCC(=O)Nc2ccc(C)cc2)c(C)n(C)c1C
[84] Cc1ccc(C)c2sc(N3CCN(C(=O)c4ccc([N+](=O)[O-])o4)CC3)nc12

entry no.,79,80,81,82,83,84
N370S GC mod,·,-5%,3%,·,5%,-11%
FEN1 inhibitor,2%,23%,-2%,2%,-4%,-15%

[85] COc1ccc(N2C(=O)C(Cl)=C(N(CCO)Cc3ccccc3)C2=O)cc1
[86] CCC(=O)Nc1ccc(NC(=O)CSc2nnnn2C2CCCC2)cc1C
[87] COc1ccc(CCNC(=O)C(=O)NCC2OCCN2S(=O)(=O)c2ccc(OC)cc2)cc1 (stereo not drawn)
[88] c1cc2c(cc1C1CCCN1)OCCCO2 (stereo not drawn)
[89] COc1cc(CCCN2CCNC[C@@H]2c2ccccc2)cc(OC)c1OC
[90] CC(C)(C)c1ccccc1NC(=O)c1cc(-c2ccncc2)nc2ccccc12

entry no.,85,86,87,88,89,90
N370S GC mod,3%,4%,2%,-2%,·,·
FEN1 inhibitor,-5%,0%,4%,6%,10%,-21%
